Assay outcomes: PubChem BioAssay, National Center for Advancing Translational Sciences (NCATS)
Menin-MLL FL inh: qHTS Assay for Inhibitors Targeting the Menin-MLL Interaction in MLL Related Leukemias: Competition With Fluorescein Labeled MLL-derived Peptide; Fluorescence polarization, fluorescein-MLL peptide displacement from menin; FP activity change, % at 61.4 µM; 290,000 tested, under 10 active; inconclusive = falling polarisation curve, or a change in total fluorescence; inactive = total fluorescence flat and polarisation flat or rising; no compound was filed as active; the % refers to the polarisation; negative = inhibition;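 further: % of control where 0% means no effect; inhibitors lower the polarisation; unlabelled MLL peptide was the positive control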
TRPML1 blocker: qHTS for Inhibitors of the Human Mucolipin Transient Receptor Potential 1 (TRPML1). Mucolipin-1 (Homo sapiens), Q9GZU1. TRPML1-inducible cells, Ca2+ dye fluorescence, FDSS; stronger effect = lower value; inhibition of EC80 agonist-evoked calcium signal. activity change, negative = inhibition, % (no concentration beside the values). 390,000 tested, 0.02% active; in the data active means activity change below about -50%; inconclusive means about -30% to -50%; inactive means above about -30%;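 further: stimulus is agonist 54-4 at its EC80 concentration; on the % scale 0 is the no-effect control and ±100 the full control effect; compound concentration not given in the record; the text of the record puts the active cut at -80%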
Target sequence (Q9GZU1 whole entry, looked up): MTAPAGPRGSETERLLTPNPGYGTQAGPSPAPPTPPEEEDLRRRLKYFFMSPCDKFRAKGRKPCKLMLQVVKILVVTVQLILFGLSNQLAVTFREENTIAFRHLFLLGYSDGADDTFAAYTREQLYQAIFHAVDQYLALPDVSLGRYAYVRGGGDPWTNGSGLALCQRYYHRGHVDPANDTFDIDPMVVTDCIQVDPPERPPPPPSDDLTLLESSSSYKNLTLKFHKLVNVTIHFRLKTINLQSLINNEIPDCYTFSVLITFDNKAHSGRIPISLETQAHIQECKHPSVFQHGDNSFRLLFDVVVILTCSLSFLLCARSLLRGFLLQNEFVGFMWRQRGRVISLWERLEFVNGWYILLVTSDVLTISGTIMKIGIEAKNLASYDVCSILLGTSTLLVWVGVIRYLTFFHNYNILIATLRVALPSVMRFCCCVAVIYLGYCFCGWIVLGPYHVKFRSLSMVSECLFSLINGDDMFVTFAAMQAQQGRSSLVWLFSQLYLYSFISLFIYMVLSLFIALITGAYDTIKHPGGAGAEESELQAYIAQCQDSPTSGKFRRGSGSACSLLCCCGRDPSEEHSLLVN
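Tet-induced TRPML1-DL cells loaded with Ca8 no-wash calcium dye were read kinetically on FDSS. Compound addition was followed by EC80 agonist 54-4 (4 uM final); inhibition was read over 110 s.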
TRPML1 ag: qHTS for Agonists of the Human Mucolipin Transient Receptor Potential 1 (TRPML1) | Mucolipin-1 (Homo sapiens), Q9GZU1 | TRPML1-expressing cells, Ca2+ dye fluorescence, FDSS; host cell line not named in the record; reference of the full effect not given here | 410,000 tested, 0.12% active | AID 624414, 2012 | activation, % (concentration not given with the values); in the data active = activation above about 50%; inconclusive = about 30% to 50%; inactive = below about 30%; further: 0% is about no effect; the text of the record puts the active cut at 80%
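Tet-induced TRPML1-DL cells, 1,500 per well, cultured overnight, were loaded with a no-wash Ca2+ dye for 45–90 min. Calcium fluorescence was recorded on the FDSS for 110 s after compound addition, before the EC80 agonist (4 uM 54-4) was added.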
PINK1 modulator: A Quantitative High throughput Screen to Identify Chemical Modulators of PINK1 Expression; PINK1 immunofluorescence, high-content cytometry, 24 h; Potency, µM (titrated, usually from 76.6 µM), without a hit: top-dose activation (PINK1 increase), actives largely listed as activators; 410,000 tested, 0.2% active; AID 624263, 2012; active = well fitted activation curve with a large enough effect; inconclusive = small, poorly fitted or top-dose-only effect; inactive = flat fitted curve, though single readings scatter; cell line not stated here;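 further: potency means the concentration at half of the fitted maximal effect; % of control where 0% means no effect; nearly all actives have a fitted effect of over 65% in size; a mitochondrial uncoupler was the plate control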
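Readout is PINK1 immunofluorescence, quantified alongside mitochondrial, cell and nuclear markers by laser-scanning microplate cytometry. Cells from a stable line were exposed to compound titrations (5 concentrations) for 24 hours, with CCCP controls.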
TRPV1 potentiator: HTS Assay for Compounds that Act as Potentiators of the Vanilloid Receptor 1 | TRPV1-expressing cells, Fluo-8 calcium influx, capsaicin EC20 potentiation; host cell line not named in the record; control for the full effect not named in the record | Transient receptor potential cation channel subfamily V member 1 (Homo sapiens), Q8NER1 | potentiation, % at 8.33 µM | AID 540277, 2011 | 320,000 tested, 0.02% active; active means potentiation above 80%; inconclusive means 30% to 80%; inactive means below 30%; further: 0% is about no effect
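Cells expressing TRPV1 were dye-loaded with Fluo-8 and read kinetically: 10 s baseline, 3 min after compound (agonist portion), then 2 min after EC20 capsaicin (allosteric enhancer portion). Calcium-bound dye fluorescence at 480/520 nm.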
Sfp PPTase inh: qHTS Assay for Inhibitors of Bacillus subtilis Sfp phosphopantetheinyl transferase (PPTase); Biochemical Sfp PPTase activity, qHTS; AID 1490, 2009; Potency, µM, without a hit: max response, negative = inhibition, actives largely listed as inhibitors; 310,000 tested, 3.5% active; active means well fitted inhibition curve with a large enough effect; inconclusive means small, poorly fitted or top-dose-only effect, or another doubt; inactive means no such curve, though single readings can be large or run the other way;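 further: the enzyme is Sfp with the accession as filed and its product quenches rhodamine fluorescence; potency means the concentration at half of the fitted maximal effect; 0% = enzyme reaction without inhibitor and -100% = no enzyme wells; top concentration of the series not given in the record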
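Buffer: 50 mM Hepes-Na pH 7.6, 10 mM MgCl2, 0.01% Nonidet P-40, 0.01% BSA. Enzyme 15 nM, pre-exposed to compound 15 min; substrates then added and fluorescence change tracked over 30 min.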
ClpP mod: qHTS Assay for Activators of ClpP; ATP-dependent Clp protease proteolytic subunit (Bacillus subtilis (strain 168)), P80244; purified B. subtilis ClpP, FRET peptide cleavage, 20 min; Potency, µM (top dose mostly 57.5 µM), inactives show at the top dose activity change, negative = active; 340,000 tested, 1.9% active; AID 651965, 2013; active = well fitted falling curve with a large enough effect; inconclusive = small, poorly fitted or top-dose-only effect; inactive = no such curve, though single readings can be large or run the other way; further: potency means the concentration at half of the fitted maximal effect; the source files actives as falling curves though it sought activators and does not explain the sign; nearly all actives have a fitted effect of over 65% in size; many hits overshoot -100%
Target sequence (P80244 whole entry, looked up): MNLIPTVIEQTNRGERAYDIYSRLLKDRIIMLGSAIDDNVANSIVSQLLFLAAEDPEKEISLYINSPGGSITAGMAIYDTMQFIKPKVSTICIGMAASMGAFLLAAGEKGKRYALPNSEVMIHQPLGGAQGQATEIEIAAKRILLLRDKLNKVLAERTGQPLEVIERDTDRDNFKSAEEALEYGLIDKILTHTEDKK
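FRET quenching reversal measured ClpP activation: 10 microg/mL B. subtilis ClpP at pH 8 with the FRET-FV decapeptide, read at 430 nm after 320 nm excitation. The 20-min minus 0-min signal was scaled between DMSO/no-enzyme wells and ADEP (5.8 microM final).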
Starred values were filed as active, the others as inactive; ? = inconclusive; · = not tested or not shown; [ ] = another dose, or the depositor's remark. Hits appear at their usual frequency; about 4.4% have a hit in one of these screens.

SMILES | Menin-MLL FL inh | TRPML1 blocker | TRPML1 ag | PINK1 modulator | TRPV1 potentiator | Sfp PPTase inh | ClpP mod
CCOC(=O)N1CCC(=NNc2nc(C)cc(=O)[nH]2)CC1 | -8.1 | 0.0 | -0.5 | 2.1% | -0.1 | 79.4µM* | -0.5%
Cn1c(N)c(Sc2ccccc2[N+](=O)[O-])c(=O)n(C)c1=O | 4.0 | -4.5 | 1.7 | -1.5% | -1.4 | -12.7% | ·
Fc1ccc(N2CCN(c3ncnc4c3nc3n4CCCC3)CC2)cc1 | · | 3.8 | -1.2 | 1.6% | · | · | 0.2%
Cc1ccc(OCCCC(=O)Nc2nccs2)cc1 | 0.5 | -4.0 | -0.2 | -1.4% | -3.6 | -5.6% | 0.4%
Cc1ccccc1S(=O)(=O)Cc1ccc(C(=O)NC2CCCC2)o1 | -2.1 | 68.8 | 0.8 | 0.7% | -5.4 | 11.4% | 2.1%
Cn1c(=O)c(-c2cccs2)nc2cnc(OCc3ccccc3)nc21 | -8.3 | · | · | 0.2% | · | 6.9% | ·
CCOC(=O)CN1Cc2cccc(C(=O)O)c2C1=O | 3.5 | 4.0 | -0.2 | 1.6% | 11.8 | -10.9% | -0.1%
O=c1[nH]c2cc3ccccc3cc2nc1C(F)(F)F | ? | -5.7 | 11.3 | -0.5% | 9.3 | -0.8% | -2.0%
CCN(CC)CCCNC(=S)Nc1ccc(Br)cc1 | -1.8 | -11.4 | -0.5 | -0.6% | 7.6 | 9.3% | -0.4%
CCc1ccc(CN2CCCC(CCC(=O)N3CCN(c4ccccn4)CC3)C2)o1 (centres undefined) | 3.8 | -5.8 | -0.5 | 0.7% | -19.3 | 9.3% | 3.7%
CC(C(O)c1cc(=O)c(OCc2ccccc2)co1)[N+](=O)[O-] (centres undefined) | · | -5.5 | -0.5 | 0.9% | · | · | -2.4%
CCOc1ccc2nc(NC(=O)c3nc(SCc4ccc(C)cc4)ncc3Cl)sc2c1 | · | 10.6 | -0.1 | 2.1% | · | · | -0.6%
CCS(=O)(=O)N1CCc2cc(C(=O)Nc3cccc(C)c3C)ccc21 | · | -11.1 | -0.8 | 2.1% | · | · | -0.2%
CCOC(=O)c1c(C)n(C)c2ccc(OC)c(NC(=O)CN3CCN(C(=O)c4ccco4)CC3)c12 | 0.5 | -0.4 | 0.5 | -0.5% | -9.8 | 7.4% | -0.4%
O=C1C(=O)N(CCCN2CCOCC2)C(c2ccc([N+](=O)[O-])cc2)/C1=C(/O)c1ccc2c(c1)OCO2 (centres undefined) | -0.1 | -0.6 | -0.3 | 0.1% | -5.1 | -19.9% | -0.6%
CN1CCN(c2ncc3nc(-c4ccccc4)c(=O)n(C4CC4)c3n2)CC1 | ? | · | · | 0.0% | · | 1.1% | ·
COc1cc(NC(=O)C2CC(c3ccccc3O)=NO2)c(OC)cc1Cl (centres undefined) | 0.9 | 3.8 | 0.5 | 9.1% | 6.5 | -22.1% | ·
COc1ccc(NC(=O)CN(C)CC(=O)NC2CCCCC2C)cc1 (centres undefined) | · | 0.7 | 3.9 | -0.5% | 2.2 | · | -12.5%
COc1ccc(N2CCN(C(=O)CN(c3ccccc3)S(=O)(=O)c3ccc(OC)cc3)CC2)cc1 | -1.4 | -8.1 | 0.0 | · | 9.2 | -5.7% | -1.8%
Cc1ccc(C)c(S(=O)(=O)N2CCCCC2CCNC(=O)C(=O)NCc2cccnc2)c1 (centres undefined) | · | 1.2 | -0.1 | 2.9% | -6.1 | · | -1.6%
CCN(CC)C(=O)c1ccc(Oc2ccc([N+](=O)[O-])cc2Cl)cc1 | -3.9 | 17.4 | 0.0 | 0.9% | -2.3 | -9.3% | ·
Clc1ccc(-n2ncc3c(NCc4ccc5c(c4)OCO5)ncnc32)cc1 | -2.3 | 0.7 | 1.9 | 5.6% | -4.9 | 14.2% | 236.2%
Cc1ccc(-n2c3nc(=O)n(C)c(=O)c-3cc3ccccc32)c(C)c1 | · | 9.0 | -0.7 | 1.2% | · | · | -20.3%
O=C(Nc1nnc(SCC(=O)N2CCOCC2)s1)c1ccccc1 | 4.2 | -10.7 | -0.4 | 1.3% | -3.9 | 6.4% | 0.9%
CC1Cn2c(CCc3ccccc3)nnc2S1 (centres undefined) | 0.5 | -2.4 | -0.1 | · | 6.7 | 11.9% | -1.0%
COc1ccc(N2CCN(C(=O)c3c(C)oc4ncn(CC(C)C)c(=O)c34)CC2)cc1 | · | 11.7 | -0.9 | 2.7% | · | · | -1.9%
Cc1cc(C)n2nc(C(=O)OCC(=O)Nc3cc(S(=O)(=O)N4CCOCC4)ccc3Cl)nc2n1 | · | -1.4 | -0.7 | -0.3% | · | · | -1.8%
Cc1n[nH]c(=O)c2c(NC(=O)CSc3nncn3C(C)C)oc(C)c12 | · | 6.7 | -0.2 | -0.7% | -7.1 | · | -0.3%
COc1ccc(S(=O)(=O)N2CCOCC2)cc1NC(=O)CSc1nnc(C2CC2)n1N | -3.6 | -5.2 | -0.1 | 2.9% | -5.4 | -6.9% | 1.6%
O=C1OC(N2CCN(C(=O)c3ccco3)CC2)c2ccccc21 (centres undefined) | 2.1 | -4.3 | -0.1 | 2.5% | 4.2 | -0.2% | -0.5%
C(=C\c1ccccc1)/CN1CCN(C(c2ccccc2)c2nnnn2C2CCCC2)CC1 (centres undefined) | · | · | 1.7 | 12.4% | · | · | 0.8%
COc1ccc(S(=O)(=O)N2CCC(NC(=O)c3cccnc3)CC2)cc1 | · | -3.5 | -0.4 | 1.5% | 4.1 | 12.8% | ·
Cc1ccccc1OCC(=O)Nc1c(C)ccc2nsnc12 | · | 14.9 | -0.4 | 3.4% | · | · | 7.5%
C=CCOc1ccc(C=Nc2cccc(Cl)c2)c(O)c1 | -2.3 | 0.1 | 0.5 | 2.4% | -7.0 | 7.4% | -2.3%
CCN(CC)S(=O)(=O)c1cccc(C(=O)N[C@H](C(=O)NCc2ccccc2F)C(C)C)c1 | -4.1 | 1.5 | 2.4 | 0.6% | ? | 1.5% | -5.7%
Cc1nc(N2CCOCC2)nc(Oc2ccccc2F)c1[N+](=O)[O-] | 4.4 | 13.2 | 0.6 | 5.9% | 8.0 | -10.5% | -0.6%
COc1ccc2c(c1)c(C(C)=O)c(C)n2CCc1ccc(OC)c(OC)c1 | 5.4 | · | · | 2.1% | 9.4 | -3.3% | 0.2%
Cc1ccc(C(=O)Nc2ccc(S(=O)(=O)N3CCCC3)cc2)s1 | -2.4 | -2.0 | -0.4 | -1.5% | -4.7 | 15.8% | 2.2%
Cc1cccc(NC(=O)C2CCCN(S(=O)(=O)c3cnc[nH]3)C2)c1C (centres undefined) | · | -14.2 | 0.6 | 1.2% | · | · | -1.6%
CC1CCCN(C(=O)Cn2nnc(-c3ccc([N+](=O)[O-])cc3)n2)C1 (centres undefined) | -2.3 | · | · | · | 1.0 | 16.2% | ·
NC(=O)c1ccc(-c2nnn(CC(=O)N(C3CCCCC3)C3CCS(=O)(=O)C3)n2)cc1 (centres undefined) | · | -5.0 | 0.7 | 3.9% | 14.4 | · | -0.3%
Cc1cc(C)n2nc(CNS(=O)(=O)c3c(F)c(F)c(F)c(F)c3F)nc2n1 | -0.8 | -0.2 | -0.3 | -0.3% | -8.7 | 11.0% | -1.6%
CC(C)(O)/C=C/C(=O)[C@](C)(O)C1[C@H](O)C[C@@]2(C)C3CC=C4C(C=C(O[C@@H]5O[C@H](CO)[C@@H](O)[C@H](O)[C@H]5O)C(=O)C4(C)C)[C@]3(C)C(=O)C[C@]12C (some centres undefined) | · | 12.4 | -1.1 | 0.4% | · | · | 1.6%
COC(=O)c1ccc(NC(=O)c2cc(S(=O)(=O)N3CCOCC3)cn2C)cc1 | · | -11.5 | -0.3 | -0.3% | · | · | 10.4%
COc1ccc2c(Sc3ccc(Cl)cc3)c(C(=O)NCCCN3CCCCC3)[nH]c2c1 | · | 17.4 | 0.3 | 5.2% | · | · | -9.8%
CCc1ccccc1NC(=O)NC(CC)Cn1nnc2ccccc2c1=O (centres undefined) | · | -16.7 | 0.7 | 1.4% | · | · | -0.1%
Cc1ccc(C)c(C(C)NC(=S)NC2CCCCC2)c1 (centres undefined) | 1.0 | 1.5 | 0.7 | ? | -15.7 | 4.4% | 0.5%
CN(C)c1ccc(C(=S)Nc2ccccc2)cc1 | -1.4 | -15.0 | 2.6 | -0.2% | -3.8 | -12.5% | 7.5%
Cc1cccc(CCN2CCN=C2N(C)C)c1 | · | 7.9 | 0.1 | -0.1% | 0.3 | · | 2.1%
Nc1oc2ccc(F)cc2c(=O)c1C=O | 14.5 | 11.6 | 0.6 | -1.0% | 20.5 | 7.5% | -0.8%
O=C(NCCNC(=O)c1ccco1)c1cccc(F)c1 | -1.6 | 2.1 | -0.2 | 0.8% | 5.0 | 25.5% | 3.0%
Cc1ccc(C)c(OCC(=O)N2CCc3ccccc3C2)c1 | 0.4 | 0.0 | 1.0 | 1.9% | -15.6 | 10.9% | 1.6%
O=C(Nc1cccnc1)C1CCCN(S(=O)(=O)c2ccccc2)C1 (centres undefined) | -0.3 | 13.1 | -0.9 | 0.1% | -7.9 | 24.8% | 0.5%
CN(CCn1ccnc1)C(=O)CC1C(=O)NCCN1Cc1ccccc1C(F)(F)F (centres undefined) | -2.5 | 11.6 | 0.6 | -2.1% | -4.1 | 18.4% | ·
CCOC(=O)c1[nH]c(C)c(C(=O)Nc2cccc(Cl)c2C)c1C | 3.0 | 24.6 | 1.4 | 5.2%[38.3 µM] | -11.6 | 3.7% | 1.3%
CCCN1CCN(C(=O)c2cc(COc3ccc(F)cc3F)on2)CC1 | 4.3 | 1.2 | 1.2 | 0.1% | -13.9 | 14.9% | -0.8%
